Compound activity: PubChem, National Center for Advancing Translational Sciences (NCATS)
D2 potentiator: Beta-Arrestin HTS for Positive Allosteric Modulators of the Human D2 Dopamine Receptor: Potentiators; D(2) dopamine receptor (Homo sapiens), P14416; DiscoveRx D2 beta-arrestin cells, luminescence, 90 min; 100% = 57 uM dopamine signal; potentiation, % (concentration not given with the values); 0.23% of 360,000 active; AID 624464, 2012; active = potentiation of 50% or more; inconclusive = 30% to 50%; inactive = 30% or less;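 note: compound concentration not given in the record; tested on top of an EC20 dose of dopamine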
Target sequence (P14416 whole entry, looked up): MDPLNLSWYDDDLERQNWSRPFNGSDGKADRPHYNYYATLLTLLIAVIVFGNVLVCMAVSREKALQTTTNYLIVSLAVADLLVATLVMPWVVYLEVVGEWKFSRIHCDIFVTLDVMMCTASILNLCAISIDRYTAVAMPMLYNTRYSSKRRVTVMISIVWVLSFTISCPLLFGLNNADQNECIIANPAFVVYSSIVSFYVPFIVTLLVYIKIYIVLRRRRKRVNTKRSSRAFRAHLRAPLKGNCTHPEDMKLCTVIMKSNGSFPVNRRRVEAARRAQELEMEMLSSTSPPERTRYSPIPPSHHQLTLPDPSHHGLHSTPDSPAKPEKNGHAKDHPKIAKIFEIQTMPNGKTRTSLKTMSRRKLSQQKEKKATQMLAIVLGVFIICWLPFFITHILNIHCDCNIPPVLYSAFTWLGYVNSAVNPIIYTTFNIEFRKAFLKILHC
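D2 cells co-treated with compound plus 50 nM dopamine (EC20) for 90 min at 37 deg C to detect potentiation. Beta-arrestin recruitment was read as enzyme-fragment luminescence after 1 h at ambient temperature. Full response was set by 57 uM dopamine.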
Six1-Eya2 blk: qHTS Assay for Inhibitors of the Six1/Eya2 Interaction; Homeobox protein SIX1 (Homo sapiens) + Protein phosphatase EYA2 (Homo sapiens), …; 0.56% of 360,000 active; activity change, % (no concentration beside the values); AID 651725, 2012; AlphaScreen GST-Six1/His-Eya2 binding, biochemical; active compounds read low; control for the full effect not named in the record; in the data active = activity change below about -65%; inconclusive = about -30% to -65%; inactive = above about -30%; note: % is set by controls: 0 for no effect and ±100 for the full control effect
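AlphaScreen with GST-Six1 and His-Eya2 (5X mix: 250 nM and 500 nM), glutathione donor and nickel acceptor beads; buffer 50 mM Tris pH 8.0, 300 mM NaCl, 1 mM TCEP; 1 h at 37 C in the dark.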
gsp antagonist: qHTS for Antagonists of gsp, the Etiologic Mutation Responsible for Fibrous Dysplasia/McCune-Albright Syndrome: qHTS; gsp-mutant cells, cAMP HTRF, 30 min; control for the full effect not named in the record; 0.4% of 340,000 active; Potency, µM (series often up to 76.9 µM), for inactives: at the highest dose activity change, negative = inhibition, actives largely listed as inhibitors; AID 624288, 2012; active = falling curve of any shape with a large fitted effect; inconclusive = falling curve, mostly with a smaller effect; inactive = flat or rising curve; cell line not stated here;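 note: intracellular cAMP measured with PDE inhibitor Ro 20-1724 present during compound exposure; potency is the fitted concentration of half-maximal effect; % is set by controls: 0 for no effect and ±100 for the full control effect; nearly all actives have a fitted effect of over 65% in size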
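HTRF cAMP read-out (cAMP-d2 plus anti-cAMP antibody-K in lysis buffer, 30 min RT). Before lysis, cells are exposed to compounds with […] for 30 min at 37C in DPBS containing Ca/Mg, BSA and Tween 20.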
CtBP-E1A blk: qHTS Assay for Inhibitors of the CtBP/E1A Interaction. CtBP / adenovirus E1A interaction (AlphaScreen). AlphaScreen GST-E1A/His-CtBP binding, 1536-well; active compounds read low; control for the full effect not named in the record. activity change, % (concentration not given with the values). 0.49% of 340,000 active; in the data active means activity change below about -65%; inconclusive means about -30% to -65%; inactive means above about -30%; note: % is set by controls: 0 for no effect and ±100 for the full control effect
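In 5 uL wells, 23 nL compound meets equimolar GST-E1A and His-CtBP (5X stock 125 nM each) for 2 h, 37 °C. Beads (5X, 50 ug/mL) then 1 h, 37 °C, dark.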
gsp ag: qHTS for Agonist of gsp, the Etiologic Mutation Responsible for Fibrous Dysplasia/McCune-Albright Syndrome: qHTS. 0.13% of 340,000 active. Potency, µM (titrated, usually from 76.9 µM), without a hit: at the highest dose activation (cAMP increase), actives largely listed as activators. gsp mutant cells, cAMP HTRF, 30 min; control for the full effect not named in the record. AID 624287, 2012; active = well fitted activation curve with a large enough effect; inconclusive = small, poorly fitted or top-dose-only effect, or another doubt; inactive = no such curve, though single readings can be large or run the other way; cell line not stated here;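 note: phosphodiesterase inhibitor Ro 20-1724 added with compounds to block cAMP breakdown; potency is the fitted concentration of half-maximal effect; nearly all actives have a fitted effect of over 60% in size; about a fifth of the inactives were tested at one dose only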
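Cells in DMEM/10% FBS with G418 were pretreated with compounds in DMSO plus […] (300 uM stock) for 30 min at 37C. cAMP was measured by HTRF (cAMP-d2 plus anti-cAMP antibody-K) after 30 min at room temperature.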
D2 ag: Beta-Arrestin HTS for Positive Allosteric Modulators of the Human D2 Dopamine Receptor: Agonists; 0.084% of 360,000 active; AID 624465, 2012; activation, % (no concentration beside the values); D(2) dopamine receptor (Homo sapiens), P14416; DiscoveRx PathHunter D2 beta-arrestin, luminescence, 90 min; 100% = 57 uM dopamine signal; in the data active = activation above about 40%; inconclusive = about 15% to 40%; inactive = below about 15%; note: compound concentration not given in the record; the text of the record calls up to 30% inactive
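DiscoveRx PathHunter D2 beta-arrestin cells (2,100/well) attached overnight, then compound-stimulated 90 min at 37 C in HBSS/10 mM HEPES/0.1% Tween-20 buffer; beta-galactosidase complementation read by luminescence after 1 h at ambient temperature. Dopamine 57 uM final (EC100) as control.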
* marks the source's active call; other numbers are inactive results; ? = inconclusive; . = no result given; [ ] = remark or other dose.

D2 potentiator | gsp ag | CtBP-E1A blk | Six1-Eya2 blk | D2 ag | gsp antagonist | structure
-2 | -12%[15.4 µM] | 21 | 15 | 7.7 | -18% | O=C(NNc1cccc(Cl)n1)Nc1cccc(C(F)(F)F)c1
-4 | 2%[15.4 µM] | -11 | -12 | -4.4 | -1% | COC(=O)C1=C(C)NC(C)=C(C(=O)OC)C1C(=O)OCC(=O)c1ccc(F)cc1
-12 | 3% | . | 20 | -4.8 | 21% | FC(F)(F)c1ccnc(Oc2ccc(C3=NCCS3)cc2)c1
-18 | . | -7 | 3 | -3.7 | . | CCc1nc2c(OCc3ccc(F)cc3)cccn2c1N(C)C(=O)c1ccc(C)cc1
-15 | 18% | 10 | -1 | -2.0 | 5% | COc1ccc(-c2noc(CCC(=O)NCCCN3CCC(C)CC3)n2)cc1
26 | 0% | 0 | -2 | -1.8 | -6% | CC1CN(C(=O)CSc2nc(-c3ccc(F)cc3)cs2)CC(C)O1 (centres undefined)
2 | ? | 2 | 2 | -7.3 | . | COc1ccc(CN2C(=O)C(CC(=O)NCc3ccco3)CC(C(=O)N(C)C)=C2C)cc1 (centres undefined)
1 | ? | 0 | 3 | 4.5 | 2% | Cn1c(=O)c2c(nc(Br)n2C)n(C)c1=O
-5 | -18% | 2 | -2 | -5.2 | -7% | COc1ccccc1NC(=O)c1cc(-c2ccc(OC)c(OC)c2)nc2ccccc12
-4 | -1%[15.4 µM] | -6 | -6 | -3.5 | 4% | COc1ccc(CC(=O)Nc2cc(NC(=O)Cc3ccc(OC)c(OC)c3)cc(C(=O)O)c2)cc1OC
-6 | 4% | 4 | -9 | -1.5 | -7% | O=C(CSc1nc2ccccc2[nH]1)N1CCN(S(=O)(=O)c2ccc(Cl)cc2)CC1
-1 | ? | -8 | 2 | 2.7 | 10% | CC(C)CN1CCN(Cc2cccn2-c2cccnc2)CC1CCO (centres undefined)
-13 | 0% | -20 | -27 | 1.4 | -3% | COc1ccccc1/C=C/C=N/N1CCN(c2ccccn2)CC1
7 | -2%[15.4 µM] | 15 | 0 | 3.9 | ? | COc1ccc(-c2nn(-c3ccccc3)cc2C(=O)Nc2ccc(C(=O)O)cc2)cc1
-2 | -4%[15.4 µM] | 0 | -1 | -3.1 | 15% | COc1ccc(CCNC(=S)N2CCC(C(N)=O)CC2)cc1
0 | ? | 9 | 2 | -2.7 | -4% | CCCCN(C)C(=O)Cn1cnc2sc(C)c(S(=O)(=O)N3CCN(c4ccccc4OC)CC3)c2c1=O
-14 | 5% | -7 | -2 | -0.5 | 0% | COC(=O)c1sccc1NC(=O)c1cc(C)on1
-10 | 27% | -18 | -16 | -1.4 | 9% | COc1ccc(C(=O)NCCSc2ccccc2)cc1
-8 | 2% | -4 | 5 | -4.0 | 3% | CCN(CC(=O)Nc1ccccc1C(F)(F)F)C(=O)c1ccc(N2C(=O)CCC2=O)cc1
-3 | -41% | -5 | -6 | 0.4 | -14% | NS(=O)(=O)c1ccc(NCc2ccccc2OCc2ccccc2F)cc1
-21 | -2% | . | 0 | -7.3 | 50%[activator] | COCC(C)NC(=O)c1ccc(CN2CCc3ccccc3C2)cc1 (centres undefined)
-5 | ? | 2 | 35 | -3.1 | 19% | Cc1ccc(-n2c(C)cc(=O)cc2C)cc1[N+](=O)[O-]
3 | -6% | 3 | 9 | -1.3 | 2% | COc1ccc(CN2CCN(C(=O)CC(C)C)CC2)cc1OC
-11 | . | 4 | 4 | 0.2 | 10% | CC1O[C@@H](O[C@H](C)CC/C=C/C(=O)O)C(O)C[C@H]1O (some centres undefined)
-1 | -45%[inhibitor] | 0 | 13 | -3.5 | 0% | Nc1nnc(SCC(=O)OCC(=O)Nc2ccc(Br)cc2)s1
6 | 17%[15.4 µM] | -2 | -3 | 6.1 | -2% | O=[N+]([O-])c1ccc(C2=Nn3c(Cn4nnc5ccccc54)nnc3SC2)cc1
-25 | 10% | -1 | 2 | 0.2 | 7% | COC(=O)C1(CCSC)NC(c2ccc(O)cc2)C2C(=O)N(c3ccc4c(c3)OCCO4)C(=O)C21 (centres undefined)
-8 | 15% | 6 | 2 | -1.7 | ? | N#Cc1ccc(C#Cc2ccc3oc4ccccc4c(=O)c3c2)cc1
-9 | 17%[15.4 µM] | -1 | -23 | -1.3 | -8% | Cn1ccc(C(=O)Nc2sc3c(c2C(N)=O)CCCCC3)n1
-7 | 10% | -7 | 1 | 0.4 | 6% | C=C(c1ccc2nc(NC(=O)OC)[nH]c2c1)c1cccs1
1 | 9% | 3 | -3 | -0.1 | -5% | CCC1Oc2ccccc2N(CC(=O)Nc2ccc(OC)cc2OC)C1=O (centres undefined)
3 | -19% | 11 | 4 | 0.6 | 15% | CN(C)C(CNC(=O)CCNC(=O)c1ccc(Cl)cc1)c1ccco1 (centres undefined)
-1 | -4%[15.4 µM] | 21 | 0 | -1.5 | 5% | O=S(=O)(Nc1ccccc1Cl)c1ccc(NS(=O)(=O)c2cccs2)cc1
-5 | . | 0 | -5 | -0.6 | -7% | CCC(C)Sc1ccc([C@H]2N[C@@](Cc3ccccc3)(C(=O)OC)[C@H]3C(=O)N(CC)C(=O)[C@@H]23)cc1 (some centres undefined)
-37 | -21% | 8 | 3 | -2.5 | 6% | CCN1CCCC(NC(=O)c2cc([N+](=O)[O-])ccc2OC)C1 (centres undefined)
-8 | -9% | . | -7 | 13 | -5% | Oc1ccc(-c2[nH]ncc2-c2ccc(Br)cc2)c(O)c1
-13 | -6%[15.4 µM] | 0 | -18 | -1.9 | 12% | CN(C)CCCN(Cc1ccc2c(c1)OCO2)C(=O)NC1CCCCC1
-3 | 11% | 6 | 2 | 4.9 | -3% | O=C(CC1CCCCC1)N=C1SC2CS(=O)(=O)CC2N1c1ccccc1 (centres undefined)
-9 | -6% | 7 | 7 | -1.1 | 4% | Cc1ccc(S(=O)(=O)N2CCCC2C(=O)NC2CCCCC2)cc1 (centres undefined)
-15 | -72% | . | -2 | -6.2 | 2% | CC(CCN1CCN(CCO)CC1)c1ccccc1 (centres undefined)
7 | 10%[15.4 µM] | 4 | 2 | -3.2 | 16% | O=C1CC2C(=O)NCCN2C(=NC(=O)c2ccc(Cl)cc2)N1 (centres undefined)
-3 | ? | 3 | 6 | -2.3 | 6% | Cc1ccc(S(=O)(=O)N2CCC(C(=O)NC3CCCCC3C)CC2)cc1 (centres undefined)
-13 | -29% | -2 | 0 | -1.8 | -9% | COc1ccc(C(=O)/C=C/C(=O)N(CC(=O)NC2CCCCC2)Cc2cccs2)c(O)c1
4 | 3%[15.4 µM] | -3 | -2 | -6.2 | -26% | COc1ccc(CNC(=O)c2n[nH]c3ccccc23)cc1OC
-21 | 34% | 0 | -8 | -1.8 | 11% | O=C(NCCCN1CCOCC1)c1cc(-c2ccccc2)nc2ccccc12
-3 | -29% | 21 | 14 | -2.2 | -16% | COc1cccc(CN(C)C(=O)c2ccc(COc3ccc(Cl)cc3)cc2)c1OC
3 | -28% | -17 | -29 | 1.6 | 14% | O=C(COC(=O)CC1CCCC1)Nc1ccccc1[N+](=O)[O-]
-3 | -1% | . | 3 | 3.3 | 3% | NC(=O)c1cc(S(=O)(=O)NCCCc2ccccc2)cs1
-4 | 7% | 3 | 0 | -10 | 12% | CCOc1ccccc1OCC(=O)NNC(=S)NC1CCCCC1
-31 | -96%[inhibitor] | 4 | -6 | -6.7 | 13% | COc1ccc(C(CNC(=O)c2ccc(Br)o2)N2CCN(C)CC2)cc1 (centres undefined)
-3 | -7%[15.4 µM] | 2 | 5 | -5.3 | 10% | CC(C)CCNC(=O)CN(C(=O)CCC(=O)Nc1nccs1)C1CCCCC1
-8 | 10% | 11 | 3 | -0.1 | -31% | CCOC(=O)C1(CCC(C)C)CC(CSc2nc3ccccc3[nH]2)OC1=O (centres undefined)
-11 | 5% | 5 | 6 | -2.8 | 2% | Cc1ccc2ncccc2c1NS(=O)(=O)c1ccccc1
-6 | 1%[15.4 µM] | 6 | 8 | -5.6 | 1% | O=C(Nc1ccccc1N1CCCCC1)c1ccc(-c2cccc(Cl)c2)o1
13 | ? | 0 | -4 | 1.0 | 5% | O=c1oc2ccccc2c(Nc2cc3ccccc3cc2O)c1[N+](=O)[O-]
8 | 1% | ? | -24 | 1.7 | -22% | Cc1ccc([N+](=O)[O-])cc1-c1[nH]c(-c2ccc(O)c(O)c2)nc1-c1ccccc1
-35 | ? | -10 | -1 | -4.4 | -5% | CC(=O)c1cccc(OCc2cc(C(=O)NC3CCN(Cc4ccccc4)CC3)no2)c1

Gathered by group, the entries above with a CF3 group (3)
D2 potentiator | gsp ag | CtBP-E1A blk | Six1-Eya2 blk | D2 ag | gsp antagonist | structure
-2 | -12%[15.4 µM] | 21 | 15 | 7.7 | -18% | O=C(NNc1cccc(Cl)n1)Nc1cccc(C(F)(F)F)c1
-12 | 3% | . | 20 | -4.8 | 21% | FC(F)(F)c1ccnc(Oc2ccc(C3=NCCS3)cc2)c1
-8 | 2% | -4 | 5 | -4.0 | 3% | CCN(CC(=O)Nc1ccccc1C(F)(F)F)C(=O)c1ccc(N2C(=O)CCC2=O)cc1

Record cards (already shown). Order of screens: D2 potentiator, gsp ag, CtBP-E1A blk, Six1-Eya2 blk, D2 ag, gsp antagonist
NS(=O)(=O)c1ccc(NCc2ccccc2OCc2ccccc2F)cc1 in the list: -3, -41%, -5, -6, 0.4, -14%
COc1ccc(CCNC(=S)N2CCC(C(N)=O)CC2)cc1 in the list: -2, -4%[15.4 µM], 0, -1, -3.1, 15%
Cn1ccc(C(=O)Nc2sc3c(c2C(N)=O)CCCCC3)n1 in the list: -9, 17%[15.4 µM], -1, -23, -1.3, -8%
